T cruzi inh: inhibitors of intracellular T. cruzi growth, primary screen, luminescence, NIH3T3 host cells; T. cruzi beta-gal in NIH3T3, 90 h; inhibition, % (test concentration not listed); 300,000 tested, 1.4% active; AID 1885, 2009;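 active means mean inhibition across valid replicates above about 55%, limit read from the data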;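 further: signal also drops with host cell toxicity which is not excluded here; 0% = plate median of DMSO wells and 100% = zero luminescence signal; higher percent means less beta-gal luminescence so fewer parasites; stock transfer was 50 nL into about 50 µL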
MLL AF4-AF9 inh: inhibitors of AF4 peptide binding to AF9, primary screen, biochemical, AlphaScreen, biotin-AF4 peptide, FLAG-AF9, single point; 350,000 tested, 0.47% active; Protein AF-9 (Homo sapiens), P42568; inhibition, % at 10 µM; AID 651704, 2012;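 active means every replicate reaching a set inhibition limit, whatever the replicate mean, cut at about 25% in these data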;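 further: 0% = plate neutral control median and 100% = total signal loss; the record names both 10 and 1 µM as test concentration; the first replicate is given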
Target sequence (P42568 whole entry, looked up): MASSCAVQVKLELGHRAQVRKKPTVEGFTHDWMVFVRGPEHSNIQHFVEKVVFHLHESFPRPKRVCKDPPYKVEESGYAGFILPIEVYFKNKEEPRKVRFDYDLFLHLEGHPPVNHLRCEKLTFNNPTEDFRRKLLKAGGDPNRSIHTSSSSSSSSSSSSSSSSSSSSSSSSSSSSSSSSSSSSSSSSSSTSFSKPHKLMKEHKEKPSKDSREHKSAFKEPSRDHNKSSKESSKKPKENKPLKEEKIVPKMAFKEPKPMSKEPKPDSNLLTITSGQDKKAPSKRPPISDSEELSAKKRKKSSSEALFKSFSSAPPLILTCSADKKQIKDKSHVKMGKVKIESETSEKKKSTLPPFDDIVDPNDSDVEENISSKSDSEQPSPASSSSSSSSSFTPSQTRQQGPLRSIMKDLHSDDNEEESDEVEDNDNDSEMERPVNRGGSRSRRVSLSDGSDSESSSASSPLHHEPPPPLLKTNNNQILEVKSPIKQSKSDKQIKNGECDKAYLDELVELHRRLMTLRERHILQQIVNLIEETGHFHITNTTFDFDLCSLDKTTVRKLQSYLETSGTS
Ecoli rRNA inh: reduced GFP signal of wild-type E. coli, primary screen, bacterial rRNA inhibitor project, GFP/RFP fluorescence, OD600, single point; 350,000 tested, 1.6% active; AID 720706, 2013; E. coli WT GFP vs humanized-ribosome RFP mutants, 24 h; stronger effect = lower value; DMSO median 0, no signal -100; GFP signal change (wild-type ribosome), % (no concentration beside the values);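 active means significant combined selectivity score with lowered wild-type GFP, culture density cut under 30%, mutant RFP and density less affected; inactive means any of these conditions unmet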; further: one replicate is shown; some compounds called inactive have numbers as strong as hits
UCH37 inh: inhibitors of human UCH37 deubiquitinase, primary screen, biochemical, Ub-AMC cleavage, fluorescence | Ubiquitin carboxyl-terminal hydrolase isozyme L5 (Homo sapiens), Q9Y5K5 | purified proteasome/UCH37 | inhibition, % (no concentration beside the values) | 330,000 tested, 0.33% active;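 active means mean of two replicates above 20%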;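 further: 0% = compound-free wells with enzyme and 100% = wells lacking proteasome; stock transfer was 100 nL into about 20 µL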
Target sequence (Q9Y5K5 whole entry, looked up): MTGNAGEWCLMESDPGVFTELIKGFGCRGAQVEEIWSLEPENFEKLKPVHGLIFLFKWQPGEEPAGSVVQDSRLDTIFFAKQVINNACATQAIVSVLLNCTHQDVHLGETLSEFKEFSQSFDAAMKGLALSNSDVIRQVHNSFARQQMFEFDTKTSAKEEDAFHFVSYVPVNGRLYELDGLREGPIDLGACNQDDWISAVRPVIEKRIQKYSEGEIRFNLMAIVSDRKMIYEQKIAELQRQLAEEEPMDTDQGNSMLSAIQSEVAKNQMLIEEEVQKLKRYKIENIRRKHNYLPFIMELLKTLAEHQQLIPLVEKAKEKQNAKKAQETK
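Signal – fluorescence, ex 355 nm, em 460 nm · System – Proteasome-bound UCH37 · Input – 0.15 nM proteasome as dispensed · Timing – 30 min preincubation with enzyme, 25 min cleavage at room temperature · Read-out basis – percent inhibition of cleavage signal versus uninhibited and no-proteasome wells · Medium – Tris-HCl pH 7.4 with ATP-MgCl2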
Ecoli growth: E. coli growth inhibition, primary screen, OD600. Escherichia coli growth, 23 h; stronger effect = lower value. OD600 absorbance (concentration not given with the values). 330,000 tested, 0.21% active. AID 1053175, 2014;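 active means OD600 absorbance below the run mean of sample wells minus 3.6 SD, in any replicate, cut at about 0.56 in these data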;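 further: stock transfer was 300 nL into about 60 µL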
Beta cell apopt: inhibitors of cytokine-induced beta cell apoptosis, primary screen, luminescence; INS-1E cytokine-induced death, ATP luminescence, 48 h; percent of positive-control rescue, neutral wells zero; protection from apoptosis, % (no concentration beside the values); 300,000 tested, 0.8% active; AID 435005, 2010;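 active means all replicates at 75% or more, or half of them and the mean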;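 further: 0% = cytokine-treated negative control wells and 100% = positive control rescue; higher means more ATP so stronger rescue from cytokine killing; wells of about 40 µL received 100 nL stock; the first replicate is given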
A1 inh: caspase 3/7 activation in MEF A1-2A-BIM cells, primary screen, A1 inhibitor project, cell-based, luminescence, HTS; caspase activation, % (no concentration beside the values); Caspase-Glo 3/7 luminescence, 3 h; percent of clofoctol response, vehicle zero; 330,000 tested, 0.066% active;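 active means over half of replicate activation scores above 10%, or exactly half above 10 with the replicate mean above 10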;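 further: wells of about 30 µL received 50 nL stock; many hits fall short of the cut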
FGF22 binding: binders of human FGF22 protein, primary screen, FGF22 synaptogenesis inhibitor project, biophysical, thermal shift, single point. Fibroblast growth factor 22 (Homo sapiens), Q9HCT0. recombinant FGF22 thermal shift, SYPRO orange fluorescence; percent of sucrose octasulfate shift, DMSO zero. calls only at 9.99 µM. 340,000 tested, 1.5% active. AID 651658, 2012;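 active means melting point raised past a set limit in the mean and every replicate; three in four hits are not shown here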
Target sequence (Q9HCT0 whole entry, looked up): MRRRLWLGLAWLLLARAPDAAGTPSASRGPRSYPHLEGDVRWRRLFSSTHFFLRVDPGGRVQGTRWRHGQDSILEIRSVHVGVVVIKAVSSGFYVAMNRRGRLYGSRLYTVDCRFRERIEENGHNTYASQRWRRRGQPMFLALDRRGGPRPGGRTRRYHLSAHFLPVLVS
Ecoli rRNA inh OD600: second read-out of Ecoli rRNA inh, no call of its own (marks repeat the call); OD600 change, %; measured here: OD600 growth;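 optical density of the mix in the first replicate; 0 = DMSO median and -100 = no signal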
Ecoli rRNA inh RFP: recorded beside Ecoli rRNA inh, whose call it bears; RFP signal change, %; measured here: RFP humanized mutant strains;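 first replicate; 0 = DMSO median and -100 = no signal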
* marks the source's active call; other numbers are inactive results; i = inactive; . = no result given; + = active, no number; & = joins results of further samples. An excerpt, so the mix of outcomes need not match the whole.

SMILES	T cruzi inh	MLL AF4-AF9 inh	Ecoli rRNA inh	Ecoli rRNA inh OD600	Ecoli rRNA inh RFP	UCH37 inh	Ecoli growth	Beta cell apopt	A1 inh	FGF22 binding
N#C/C(=C/c1cccnc1)c1ccccc1	-1	1.1	-9	-10	-4.0	2.0	0.57	-1	0.2	i
O=C(COc1c(Cl)cc(Cl)cc1Cl)c1ccc(Cl)cc1	-30	.	.	.	.	1.1	0.66	-8	0.4	.
COC(=O)c1cc(OC)c(OC)cc1NC(=O)C(C)c1ccc([N+](=O)[O-])cc1 (centres undefined)	-11	5.8	-5	-12	-1.3	2.9	0.68	0	0.3	i
CCCc1cc2c(=O)n(NC(=O)c3nn(C)cc3[N+](=O)[O-])c(C)nc2s1	-7	.	.	.	.	0.6	0.73	.	0.5	.
COc1ccc(OCCCCN2CCC(C)CC2)cc1	-17	-2.8	5	1	-0.6	1.2	0.68	-5	0.5	i
S=c1[nH]nc(-c2ccccc2)n1CC1CCCO1 (centres undefined)	-1	.	.	.	.	1.7	0.7	-6	0.4	.
CN(C)c1nc(SCCOC(=O)c2ccccc2)nc(N(C)C)n1	4	.	.	.	.	4.7	0.74	-7	0.4	.
O=C(COC(=O)c1ccccc1NC(=O)c1ccco1)NC1CCCCC1	-9	.	.	.	.	-29	0.71	-1	-0.9	.
CC(C)c1ccc(NC(=O)NCc2cccnc2)cc1	25	-0.2	-1	-4	-5.4	.	.	5	-0.2	i
CC(=O)CCc1oc2ccc(C)cc2c1Cc1ccccc1	17	2.1	-25	-23	-3.8	-6.4	0.63	-13	-0.2	i
Cc1ccc(S(=O)(=O)c2nc(S(C)(=O)=O)sc2N(C)C)cc1	-7	.	.	.	.	0.3	0.8	-1	0.2	.
O=C(c1n[nH]c(=O)c2ccccc12)N1CCN(S(=O)(=O)c2ccccc2Cl)CC1	.	-4.0	.	.	.	.	.	-5	-0.2	i
COc1ccc(OCCn2nnc(-c3ccc(Cl)cc3)n2)cc1	2	.	.	.	.	0.6	0.68	-5	1.9	.
CN(C)c1ccc(/C=N/NC(=O)c2cnc3ccccc3c2)cc1	-11	-15	-7	2	-1.9	.	.	3	0.2	i
O=C(c1nc2ccccn2c1CNCCCn1cccn1)N1CCCC1	6	0.0	3	5	-11	5.6	0.67	2	0.1	i
CC(C)NC(=O)C1CC=CCC1C(=O)O (centres undefined)	-7	.	.	.	.	0.8	0.71	-3	-0.1	.
O=C(c1cccc(-c2ccc(O)cc2)c1)N1CCN(c2ccc(F)cc2)CC1	-8	-3.1	19	14	1.2	5.7	0.7	-3	0.1	i
Cc1ccc(O)c(C(=O)c2cc(C#N)c(=O)n(CC3CCCO3)c2)c1 (centres undefined)	2	.	.	.	.	-0.6	0.72	7	0.1	.
Cc1cccc(N2CCN(C(=O)Cn3c(=O)[nH]c4ccsc4c3=O)CC2C)c1 (centres undefined)	2	.	.	.	.	-0.9	0.72	-4	0.3	.
O=C1c2ccc(Oc3ccc([N+](=O)[O-])cc3)cc2C(=O)N1CCO	-11	-27	19	9	1.6	3.9	0.66	-3	0.3	i
COc1ccc(S(=O)(=O)Nc2cc(C)ccn2)cc1	-9	.	.	.	.	-1.6	0.67	-4	-0.3	.
COc1cc(/C=C/C(=O)OCC(=O)N2CCCC2)cc(OC)c1OC	.	4.6	1	9	-1.8	-14	0.7	1	-0.3	i
O=C(c1ccco1)N1CCN(C(=O)c2cc3c(s2)-c2ccccc2OC3)CC1	4	-25	-5	-26	-2.2	i	0.71	9	0.1	i
O=C(CCn1c(=O)oc2ccccc21)NCCN1CCOCC1	2	-4.5	-5	13	-2.4	5.2	0.74	-3	-0.4	i
COCC1CCN(Cc2cn[nH]c2-c2ccc(OC)cc2F)C1 (centres undefined)	11	1.3	7	5	4.2	0.5	0.71	-2	-1.0	i

(continued)
SMILES	T cruzi inh	MLL AF4-AF9 inh	Ecoli rRNA inh	Ecoli rRNA inh OD600	Ecoli rRNA inh RFP	UCH37 inh	Ecoli growth	Beta cell apopt	A1 inh	FGF22 binding
CC1CCCCC1NC(=O)CCNC(=O)N1CC(=O)Nc2ccccc21 (centres undefined)	-13	0.6	5	10	-1.8	2.8	0.68	2	-0.1	i
COC(=O)c1sc(SC)c(S(=O)(=O)C(C)C)c1N/N=C(\C#N)C(=O)c1ccccc1	-1	.	-22	2	-3.3	.	.	2	-0.5	i
CCOC(=O)C1CCCN(c2cc(=O)n(C3CCCCC3)c(=O)[nH]2)C1 (centres undefined)	-4	-4.9	15	11	2.3	3.6	0.72	1	0.3	i
O=C(Nc1ccnc(-c2ccncc2)n1)c1ccc(F)cc1	-24	-0.7	20	18	-0.7	-1.0	0.67	-4	-0.4	i
CN1CCN(S(=O)(=O)c2cccc(C(=O)N(C)CC(=O)Nc3ccc(F)c(F)c3F)c2)CC1	-12	0.3	9	11	-1.1	1.6	0.71	.	1.1	i
C[C@@H](C(=O)Nc1cc(C(F)(F)F)ccc1N1CCOCC1)N1C(=O)C2CC=CCC2C1=O (some centres undefined)	.	1.9	2	6	-1.6	4.5	0.71	.	.	i
CC(C)[C@H](NS(=O)(=O)c1ccc2c(c1)OCCO2)C(=O)OCC(=O)Nc1ccccc1Cl	7	-2.3	1	0	-0.3	7.3	0.69	-10	0.8	i
CC(C)c1nnc(NC(=O)Cn2nc(-c3ccc4c(c3)OCCO4)ccc2=O)s1	-3	.	.	.	.	-24	0.71	1	-0.2	.
O=C(O)CCN1CCc2ccccc21	-10	.	.	.	.	1.9	0.75	-10	0.2	.
CC(C)(C)NC(=O)COC(=O)c1ccc(S(=O)(=O)N2CCCC2)cc1	-13	-0.9	5	9	-3.4	1.0	0.7	-12	-0.2	i
CC(C)OC(=O)CSc1nnc(-c2ccccc2)n1N	-7	.	.	.	.	1.0	0.7	-6	0.4	.
Cc1nn(-c2nc3ccccc3[nH]2)c(=O)c2ccccc12	-7	-1.9	26	11	4.2	-241	0.71	86*	-9.1	.
O=C1c2ccccc2C(=O)N1CCCn1c2ccc(Cl)cc2c2nc3ccccc3nc21	.	-5.2	3	4	0.9	3.5	0.66	.	.	i
CC(=O)C1C(c2ccc(C)cc2)c2c(noc2C)CC1(C)O (centres undefined)	-2	-1.1	7	1	3.6	1.1	0.71	0	-0.4	i
CC1CCc2sc3ncnc(N4CCOCC4)c3c2C1 (centres undefined)	7	.	.	.	.	0.7	0.74	-8	-0.2	.
Brc1ccccc1-c1nnc(CSc2nncn2-c2ccccc2)o1	0	.	.	.	.	-0.7	0.72	.	-0.4	.
C#CCN(C#N)c1nc(NCC)nc(NC(C)C)n1	8	2.6	-19	-7	-4.1	4.2	0.72	0	-0.4	i
C[C@H](CO)N1C[C@H](C)[C@@H](CN(C)S(=O)(=O)c2ccc(F)cc2)Oc2ccc(NC(=O)CCC(F)(F)F)cc2C1=O	.	-4.7&-0.3	3&0	-2&9	-0.6&-3.8	6.6	0.77	-5	0.2	i
O=S(=O)(Nc1ccc2c(c1)nc1n2CCOC1)c1ccc(Cl)cc1	-6	.	.	.	.	3.7	0.67	3	-1.2	.
N#CCCN(C(=O)COC(=O)Cc1ccc(Br)cc1)c1ccccc1	2	-1.0	-23	-20	-7.2	4.4	0.72	1	1.5	i
O=C(/C=C/c1ccccc1)OCC(=O)N1CCN(c2ccccc2)CC1	1	6.3	6	4	0.0	0.4	0.69	-1	0.7	i
COC(=O)C1=C(C)N(c2cccc3ccccc23)C(=O)C1	-22	.	.	.	.	-0.6	0.74	-8	-0.1	.
Cc1ccc(-c2nnn(CC(=O)NCCc3ccc4c(c3)OCO4)n2)cc1	7	-0.1	14	8	-0.1	0.6	0.66	-3	0.2	+
COc1ccc(NC(=O)C(C)NS(=O)(=O)c2ccccc2)cc1Cl (centres undefined)	4	.	.	.	.	-0.7	0.74	-8	0.5	.
Cc1cc(C)c(N(C(=O)c2csnn2)C(C(=O)NC(C)(C)C)c2ccncc2)c(C)c1 (centres undefined)	14	1.1	-4	2	1.5	0.6	0.64	-1	0.5	i

Whole records, quoted from the list.
`CCOC(=O)C1CCCN(c2cc(=O)n(C3CCCCC3)c(=O)[nH]2)C1` (centres undefined) as listed: T cruzi inh: -4; MLL AF4-AF9 inh: -4.9; Ecoli rRNA inh: 15; Ecoli rRNA inh OD600: 11; Ecoli rRNA inh RFP: 2.3; UCH37 inh: 3.6; Ecoli growth: 0.72; Beta cell apopt: 1; A1 inh: 0.3; FGF22 binding: i
`CN1CCN(S(=O)(=O)c2cccc(C(=O)N(C)CC(=O)Nc3ccc(F)c(F)c3F)c2)CC1` as listed: T cruzi inh: -12; MLL AF4-AF9 inh: 0.3; Ecoli rRNA inh: 9; Ecoli rRNA inh OD600: 11; Ecoli rRNA inh RFP: -1.1; UCH37 inh: 1.6; Ecoli growth: 0.71; Beta cell apopt: .; A1 inh: 1.1; FGF22 binding: i

Later entries:
SMILES	T cruzi inh	MLL AF4-AF9 inh	Ecoli rRNA inh	Ecoli rRNA inh OD600	Ecoli rRNA inh RFP	UCH37 inh	Ecoli growth	Beta cell apopt	A1 inh	FGF22 binding
Cc1ccc(C)c(NC(=O)c2ccc(S(=O)(=O)C(F)F)cc2)c1	-10	.	.	.	.	1.3	0.67	2	-0.5	.
CCCCc1ncc(CN2CCC(n3nccc3NC(=O)c3ccccc3OC)CC2)[nH]1	28	-6.0	6	7	5.2	-1.5	0.69	2	-0.5	i
O=C(Nc1nnc(S(=O)(=O)N2CCCCCC2)s1)c1ccccc1Cl	-13	4.2	-35	-41	-11	3.6	0.71	8	0.6	i
CCN(C(=O)C1CCCN1S(=O)(=O)c1ccc2c(c1)n(C)c(=O)c(=O)n2C)c1ccccc1 (centres undefined)	-13	-2.3	2	10	-0.7	3.9	0.72	1	0.3	i
CCOC(=O)CSc1nnc(Cc2ccccc2)n1-c1cccc(Cl)c1	0	.	.	.	.	-0.5	0.72	3	0.6	.
O=C(CC12CC3CC(CC(C3)C1)C2)Nc1cccc2ncccc12	4	.	.	.	.	3.0	0.74	-3	-0.9	.
CCNC(=S)Nc1ccc2ncoc2c1	-10	-18	3	17	6.3	4.7	0.71	-3	0.0	i
CC(=O)c1c(C)n(-c2ccccc2)c2ccc(OCC(N)=O)cc12	-4	-1.5	-10	-17	-11	3.7	0.71	-18	-0.1	i
CCOc1ccc(NC(=O)C2CCC(CNc3c(N4CCC(C)CC4)c(=O)c3=O)CC2)cc1 (centres undefined)	7	-3.3	11	10	-0.1	4.1	0.7	-6	0.4	i
O=C(NCCN1CCN(C(=O)c2ccc([N+](=O)[O-])cc2)CC1)C(=O)Nc1ccc(F)cc1	0	2.0	19	22	-1.3	2.6	0.67	.	0.2	i
COCCOC(=O)c1[nH]c2c(c1C)C(=O)CC(c1ccccc1)C2 (centres undefined)	4	.	.	.	.	3.6	0.79	19	-0.5	.
Brc1ccc(CSc2ccc(-c3ccco3)nn2)cc1	.	-1.3	.	.	.	2.0	0.72	-3	1.1	.
